# Screening data: PubChem BioAssay, National Center for Advancing Translational Sciences (NCATS)
# Sfp PPTase inh: inhibitors of Bacillus subtilis Sfp phosphopantetheinyl transferase | Q9F4F7 | Biochemical Sfp PPTase activity, qHTS | Potency, µM, for inactives: max response, negative = inhibition, most hits filed as inhibitors | 3.5% of 310,000 active | AID 1490; active means well fitted inhibition curve with a large enough effect; inconclusive means small, poorly fitted or top-dose-only effect, or another doubt; inactive means no such curve, though single readings can be large or run the other way;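 further: the enzyme is Sfp with the accession as filed and its product quenches rhodamine fluorescence; potency means the concentration at half of the fitted maximal effect; 0% = enzyme reaction without inhibitor and -100% = no enzyme wells; top concentration of the series not given in the record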
#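 After 15 min at room temperature with compound, 15 nM Sfp received 5 uM rhodamine-CoA plus 12.5 uM BHQ-2-ybbR (50 mM Hepes pH 7.6, 10 mM MgCl2). Rate came from the fluorescence difference over 30 min, ex 525/em 598 nm.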
# gsp agonist: agonists of gsp mutant (McCune-Albright syndrome); gsp mutant cells, cAMP HTRF, 30 min; control for the full effect not named in the record; Potency, µM (titrated, usually from 76.9 µM), for the others: top-dose activation (cAMP increase), actives largely listed as activators; 0.13% of 340,000 active; AID 624287; active = well fitted activation curve with a large enough effect; inconclusive = small, poorly fitted or top-dose-only effect, or another doubt; inactive = no such curve, though single readings can be large or run the other way; cell line not stated here;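 further: phosphodiesterase inhibitor Ro 20-1724 added with compounds to block cAMP breakdown; potency means the concentration at half of the fitted maximal effect; nearly all actives have a fitted effect of over 60% in size; about a fifth of the inactives were tested at one dose only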
#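 Cells in DMEM/10% FBS with G418 were pretreated with compounds in DMSO plus […] (300 uM stock) for 30 min at 37C. cAMP was measured by HTRF (cAMP-d2 plus anti-cAMP antibody-K) after 30 min at room temperature.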
# TRPV1 potentiator: enhances activation of the human vanilloid receptor TRPV1; Q8NER1; TRPV1-expressing cells, Fluo-8 calcium influx, capsaicin EC20 potentiation; host cell line not named in the record; control for the full effect not named in the record; potentiation, % at 8.33 µM; 0.02% of 320,000 active; AID 540277; active means potentiation above 80%; inconclusive means 30% to 80%; inactive means below 30%; further: 0% is about no effect
#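 Cells expressing TRPV1 were dye-loaded with Fluo-8 and read kinetically: 10 s baseline, 3 min after compound (agonist portion), then 2 min after EC20 capsaicin (allosteric enhancer portion). Calcium-bound dye fluorescence at 480/520 nm.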
# Menin-MLL FL inh: inhibitors of human menin-MLL interaction, wild-type MLL peptide | Fluorescence polarization, fluorescein-MLL peptide displacement from menin | 290,000 tested, under 10 active | FP activity change, % at 61.4 µM; inconclusive = falling polarisation curve, or a change in total fluorescence; inactive = total fluorescence flat and polarisation flat or rising; no compound was filed as active; the % refers to the polarisation; negative = inhibition;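 further: % of control where 0% means no effect; inhibitors lower the polarisation; unlabelled MLL peptide was the positive control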
# ClpP mod: qHTS Assay for Activators of ClpP. ATP-dependent Clp protease proteolytic subunit (Bacillus subtilis (strain 168)), P80244. purified B. subtilis ClpP, FRET peptide cleavage, 20 min. Potency, µM (highest dose often 57.5 µM), for inactives: top-dose activity change, negative = active. 1.9% of 340,000 active. AID 651965, 2013; active = well fitted falling curve with a large enough effect; inconclusive = small, poorly fitted or top-dose-only effect; inactive = no such curve, though single readings can be large or run the other way; further: potency means the concentration at half of the fitted maximal effect; the source files actives as falling curves though it sought activators and does not explain the sign; nearly all actives have a fitted effect of over 65% in size; many hits overshoot -100%
# Target sequence (P80244 whole entry, looked up): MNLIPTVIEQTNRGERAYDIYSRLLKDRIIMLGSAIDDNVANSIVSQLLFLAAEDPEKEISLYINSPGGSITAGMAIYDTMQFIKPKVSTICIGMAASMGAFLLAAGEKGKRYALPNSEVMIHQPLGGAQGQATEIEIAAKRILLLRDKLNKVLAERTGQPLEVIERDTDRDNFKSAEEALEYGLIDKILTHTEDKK
#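 FRET quenching reversal measured ClpP activation: 10 microg/mL B. subtilis ClpP at pH 8 with the FRET-FV decapeptide, read at 430 nm after 320 nm excitation. The 20-min minus 0-min signal was scaled between DMSO/no-enzyme wells and ADEP (5.8 microM final).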
# TRPML1 blocker: blocks the human TRPML1 channel; Q9GZU1; activity change, negative = inhibition, % (test concentration not listed); TRPML1-inducible cells, Ca2+ dye fluorescence, FDSS; hits give low values; inhibition of EC80 agonist-evoked calcium signal; 0.02% of 390,000 active; in the data active means activity change below about -50%; inconclusive means about -30% to -50%; inactive means above about -30%;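 further: stimulus is agonist 54-4 at its EC80 concentration; on the % scale 0 is the no-effect control and ±100 the full control effect; compound concentration not given in the record; the text of the record puts the active cut at -80%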
# Target sequence (Q9GZU1 whole entry, looked up): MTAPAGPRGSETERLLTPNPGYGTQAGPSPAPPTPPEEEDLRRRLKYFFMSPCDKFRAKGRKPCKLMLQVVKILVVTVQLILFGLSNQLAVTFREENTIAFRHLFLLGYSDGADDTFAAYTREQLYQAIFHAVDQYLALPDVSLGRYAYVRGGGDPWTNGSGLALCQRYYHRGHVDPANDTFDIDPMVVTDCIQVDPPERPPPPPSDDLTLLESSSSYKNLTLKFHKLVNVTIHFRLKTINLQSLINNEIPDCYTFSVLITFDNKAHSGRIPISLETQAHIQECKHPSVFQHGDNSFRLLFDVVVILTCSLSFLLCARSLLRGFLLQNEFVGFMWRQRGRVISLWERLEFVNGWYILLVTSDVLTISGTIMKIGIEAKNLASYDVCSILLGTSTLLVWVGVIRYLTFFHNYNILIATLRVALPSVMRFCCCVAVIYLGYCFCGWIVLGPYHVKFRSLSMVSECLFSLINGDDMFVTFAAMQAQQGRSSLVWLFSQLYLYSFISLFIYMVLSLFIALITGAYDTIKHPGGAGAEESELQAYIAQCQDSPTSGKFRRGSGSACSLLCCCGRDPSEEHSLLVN
#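 Calcium fluorescence in TRPML1-DL cells induced overnight with Tet: a 110 s read after compound pin addition, then a 110 s antagonist read after challenge with 54-4 at 4 uM final (EC80).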
# gsp antagonist: gsp mutant antagonism; AID 624288; Potency, µM (series often up to 76.9 µM), for the others: at the top dose activity change, negative = inhibition, usual class: inhibitors; 0.4% of 340,000 active; gsp-mutant cells, cAMP HTRF, 30 min; control for the full effect not named in the record; active = falling curve of any shape with a large fitted effect; inconclusive = falling curve, mostly with a smaller effect; inactive = flat or rising curve; cell line not stated here;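 further: intracellular cAMP measured with PDE inhibitor Ro 20-1724 present during compound exposure; potency means the concentration at half of the fitted maximal effect; on the % scale 0 is the no-effect control and ±100 the full control effect; nearly all actives have a fitted effect of over 65% in size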
#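 Cells, 2000/well, grown 16–24 h in DMEM 10% FBS with 0.5 mg/ml G418, then compounds plus […] (300 uM addition stock), 30 min at 37C. cAMP read by HTRF (cAMP-d2 and anti-cAMP antibody-K in lysis buffer) after 30 min RT.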
# The depositor's hits bear a star; ? = inconclusive; · = not tested or not shown; & = joins results of further samples; [ ] = dose if it differs, or a comment.
SMILES,Sfp PPTase inh,gsp agonist,TRPV1 potentiator,Menin-MLL FL inh,ClpP mod,TRPML1 blocker,gsp antagonist
CC(NC(=O)COc1ccccc1)C(c1cccs1)N1CCCC1 (stereo not drawn),6%,14%[15.4 µM],-6,-1.3,·,11,6%
O=Cc1cc2ccccc2nc1SCc1ccc(Cl)cc1,6%,5%,11,3.2,-0.9%,31,28%
Cc1ccccc1NC1=NC2(CCCC2)N=C(N)N1,13%,0%,4,-2.1,1.5%,-7,3%
C=CCOCC(O)Cn1c(N2CCCC2)nc2c1c(=O)n(C)c(=O)n2C (stereo not drawn),20%,8%,2,1.8,-0.1%,-6,?
CCC(=O)N(CCC1(C(C)C)CCOC(C)(C)C1)C(C)c1cccs1 (stereo not drawn),-5%,-23%,-16,-0.6,2.3%,30,-8%
CCN(CC)c1ccc2nc3ccc(N)cc3[n+](-c3ccccc3)c2c1,·,20%,-7,·,-7.2%,16,?
CCOc1ccc(NC(=O)NCCN2C(C)CCCC2C)cc1 (stereo not drawn),12%,-66%[inhibitor],-22,-0.5,-3.9%,-5,9%
Cc1cc(C)cc(C(=O)Nn2cnnc2)c1,22%,9%[15.4 µM],82*,-1.5,0.1%,4,-2%
CC(=O)Nc1ccc(/C(C)=N/NS(=O)(=O)c2ccc(C)cc2)cc1,4%,5%,3,-3.6,-0.5%,-11,9%
CC(CNC(=O)COC(=O)c1cccs1)c1ccccc1 (stereo not drawn),·,18%,-3,·,-2.3%,4,10%
c1ccc(N2CCN(Cc3cn4ccccc4n3)CC2)cc1,-2%,6%,2,-0.1,-7.0%,-4,-11%
CC(C)c1nc(N2CCOCC2)c(C#N)c2c1COC(C)(C)C2,6%,-23%,9,-6.3,16µM*,41,-15%
O=C(CN1C(=O)NC2(CCCCC2)C1=O)Nc1ccc2c(c1)OCCCO2,·,-48%[inhibitor],3,·,-1.4%,6,8%
CCc1ccc(C2CC(=O)N(c3cccc(F)c3)C3=C2C(=O)OC3)cc1 (stereo not drawn),15%,-2%,-4,-0.1,-0.5%,11,2%
O=C(CN1CCN(C(=S)NC2CCCC2)CC1)Nc1ccc(Oc2ccccc2)cc1,22%,-4%,18,3.3,1.0%,-8,3%
Cc1cc(N/N=C/c2c[nH]c3ccccc23)c2ccccc2n1,-2%,2%[15.4 µM],3,5.7,·,1,-10%
O=C(O)[C@@H]1CSC2(CCSC2)N1 (stereo partly drawn),45µM*,·,-6,2.6,·,·,·
CSc1ccc(/C=C/C(=O)c2ccc(NC(C)=O)cc2)cc1,-2%,?,-23,-2.1,-3.1%,22,-2%
CCOC(=O)N1CCN(C(=O)c2ccc(NC(C)=O)cc2)CC1,16%,12%,13,2.6,0.6%,-1,6%
Cc1ccc(OCCn2c3ccccc3n3nc(C)c(=O)nc23)cc1,9%,23%,3,-5.1,·,19,-13%
COC(=O)c1ccc(NC(=O)C2CCN(C(=O)Nc3ccccc3)CC2)cc1,·,15%,-4,·,-3.2%,-5,-13%
CC(=O)Nc1ccc(Cl)cc1C(=O)O,8%,-49%,7,-3.3,?,31,4%
CC(C)CCOC(=O)C(C)Sc1n[nH]c(=O)[nH]c1=O (stereo not drawn),14%,-32%[inhibitor],7,-0.3,0.8%,15,-8%
CCn1c(=O)n(CC)c2cc(N3CCCC3)c(NC(=O)c3c(F)cccc3F)cc21,-2%,4%,-12,0.1,-7.5%,8,32µM*
CCC(=O)Nc1ccccc1C(=O)N1CCCC1,1%,8%,-11,-0.3,1.0%,9,13%

# The results go on.
SMILES,Sfp PPTase inh,gsp agonist,TRPV1 potentiator,Menin-MLL FL inh,ClpP mod,TRPML1 blocker,gsp antagonist
COC(=O)c1c(NC(=O)COC(=O)C2CCC2)sc(C)c1C,·,33%[15.4 µM],1,·,·,20,-4%
Fc1ccc(CNCc2ccccc2C(F)(F)F)cc1,21%,?,1,0.1,-0.7%,13,10%
Cc1ccc(OCCn2cc(C=O)c3ccccc32)cc1,-1%,-4%[15.4 µM],23,-0.8,-0.9%,7,9%
COc1cc(C)ccc1OCc1cc(C(=O)N2CCN(C)C[C@@H]2c2ccccc2)no1,8%,-52%[inhibitor],30,·,-0.4%,12,4%
COc1ccccc1NC(=O)c1c(NC(=O)c2ccco2)sc2c1CCC2,?,-17%,19,7.7,?,13,0%
CC(c1ccco1)N(C(=O)c1ccccc1F)c1ccccn1 (stereo not drawn),24%,-1%,8,-0.7,·,-13,12%
Cc1ccc(SCC(=O)c2c(C)[nH]c3ccccc23)cc1,18%,0%[15.4 µM],-9,4.8,-1.2%,43,-2%
NNC(=O)C1CCCn2c1nc1sc3c(c1c2=O)CCCC3 (stereo not drawn),13%,-8%,6,-1.0,-3.5%,-14,3%
Cc1nn(-c2ccc(F)cc2)c2sc(C(=O)OCC(=O)N3CCC(C)CC3)cc12,0%,17%,-22,-1.8,22µM*,19,4%
COc1ccccc1Nc1ncc(-c2cccs2)s1,-27%,?,-6,14,-9.7%,23,5%
CCN(CCCNC(=O)CCNC(=O)Cn1cnc2ccccc2c1=O)c1cccc(C)c1,2%,-12%,11,-1.2,0.6%,32,-7%
O=C(N/N=C/c1ccc(O)cc1O)C1CC1,·,3%,·,·,-13%,10,2%
O=C(COc1ccc([N+](=O)[O-])cc1)NCC(c1cccs1)N1CCOCC1 (stereo not drawn),·,10%[15.4 µM],-2,·,·,6,8%
CCN(CC)C(=O)[C@H]1CC(CC(=O)NCC23CC4CC(CC(C4)C2)C3)C(=O)N2CCc3c([nH]c4ccccc34)[C@]12C (stereo partly drawn),·,·,·,·,1.2%,-1,-13%
C/C=C/c1ccc(OC)c(OC(C)=O)c1,13%,-31%[inhibitor],8,-0.7,0.6%,-5,-12%
NNC(=O)c1cc(-c2ccco2)[nH]n1,-5%,3%,-7,-0.7,0.8%,0,2%
O=C(Cc1ccccc1)c1c[nH]c(C(=O)NCCCn2ccnc2)c1,-58%,·,-14,0.0,·,·,·
CC(=O)N1c2ccccc2NC2=C(C(=O)CCC2)C1c1cccnc1 (stereo not drawn),7%,-34%[inhibitor],13,-2.1,-5.1%,5,-9%
CC(=O)c1cccc(NS(=O)(=O)c2ccc(N/C=C\C(=O)c3ccc(C)cc3)cc2)c1,19%,5%,6,1.3,-5.0%,-20,?
O=S(=O)(NC(=S)c1ccccc1)c1ccc(Cl)cc1,-19%,-4%,12,0.8,·,-8,-8%
Cc1ccc(N(CC(=O)NCCc2ccc(Cl)cc2)S(=O)(=O)c2c(C)noc2C)cc1,10%,-2%,1,·,-0.9%&1.7%,25&-1,-15%
N#Cc1ccccc1CSC1=NCCS1,8%,1%[15.4 µM],4,2.0,·,-1,-4%
CC(OC(=O)CNC(=O)C12CC3CC(CC(C3)C1)C2)C(=O)Nc1ccc(N2CCOCC2)cc1 (stereo not drawn),8%,-9%,10,0.0,-0.3%,0,-5%
Cc1ccc(NC(=O)N2CCC(c3nc4c(nnn4Cc4c(F)cccc4Cl)c(=O)[nH]3)CC2)cc1,-7%,?,2,2.5,-9.5%,23,8%

# Another view of 14 compounds above:
compound | Sfp PPTase inh | gsp agonist | TRPV1 potentiator | Menin-MLL FL inh | ClpP mod | TRPML1 blocker | gsp antagonist
COC(=O)c1c(NC(=O)COC(=O)C2CCC2)sc(C)c1C | · | 33%[15.4 µM] | 1 | · | · | 20 | -4%
Fc1ccc(CNCc2ccccc2C(F)(F)F)cc1 | 21% | ? | 1 | 0.1 | -0.7% | 13 | 10%
Cc1ccc(OCCn2cc(C=O)c3ccccc32)cc1 | -1% | -4%[15.4 µM] | 23 | -0.8 | -0.9% | 7 | 9%
COc1cc(C)ccc1OCc1cc(C(=O)N2CCN(C)C[C@@H]2c2ccccc2)no1 | 8% | -52%[inhibitor] | 30 | · | -0.4% | 12 | 4%
COc1ccccc1NC(=O)c1c(NC(=O)c2ccco2)sc2c1CCC2 | ? | -17% | 19 | 7.7 | ? | 13 | 0%
CC(c1ccco1)N(C(=O)c1ccccc1F)c1ccccn1 (stereo not drawn) | 24% | -1% | 8 | -0.7 | · | -13 | 12%
Cc1ccc(SCC(=O)c2c(C)[nH]c3ccccc23)cc1 | 18% | 0%[15.4 µM] | -9 | 4.8 | -1.2% | 43 | -2%
NNC(=O)C1CCCn2c1nc1sc3c(c1c2=O)CCCC3 (stereo not drawn) | 13% | -8% | 6 | -1.0 | -3.5% | -14 | 3%
Cc1nn(-c2ccc(F)cc2)c2sc(C(=O)OCC(=O)N3CCC(C)CC3)cc12 | 0% | 17% | -22 | -1.8 | 22µM* | 19 | 4%
COc1ccccc1Nc1ncc(-c2cccs2)s1 | -27% | ? | -6 | 14 | -9.7% | 23 | 5%
CCN(CCCNC(=O)CCNC(=O)Cn1cnc2ccccc2c1=O)c1cccc(C)c1 | 2% | -12% | 11 | -1.2 | 0.6% | 32 | -7%
O=C(N/N=C/c1ccc(O)cc1O)C1CC1 | · | 3% | · | · | -13% | 10 | 2%
O=C(COc1ccc([N+](=O)[O-])cc1)NCC(c1cccs1)N1CCOCC1 (stereo not drawn) | · | 10%[15.4 µM] | -2 | · | · | 6 | 8%
CCN(CC)C(=O)[C@H]1CC(CC(=O)NCC23CC4CC(CC(C4)C2)C3)C(=O)N2CCc3c([nH]c4ccccc34)[C@]12C (stereo partly drawn) | · | · | · | · | 1.2% | -1 | -13%
